RecA intein inh – blocks M. tuberculosis RecA intein splicing | P9WHJ3 | cell-free RecA intein splicing, fluorescence | inhibition, %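 (about 9 µM by stock and volumes)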 | actives 0.75% (n = 290,000); in the data active = inhibition above about 30%; inconclusive = no clear call, values can overlap the other calls;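 note: 0% = vehicle wells and 100% = reference inhibitor control wells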
Target sequence (P9WHJ3 whole entry, looked up): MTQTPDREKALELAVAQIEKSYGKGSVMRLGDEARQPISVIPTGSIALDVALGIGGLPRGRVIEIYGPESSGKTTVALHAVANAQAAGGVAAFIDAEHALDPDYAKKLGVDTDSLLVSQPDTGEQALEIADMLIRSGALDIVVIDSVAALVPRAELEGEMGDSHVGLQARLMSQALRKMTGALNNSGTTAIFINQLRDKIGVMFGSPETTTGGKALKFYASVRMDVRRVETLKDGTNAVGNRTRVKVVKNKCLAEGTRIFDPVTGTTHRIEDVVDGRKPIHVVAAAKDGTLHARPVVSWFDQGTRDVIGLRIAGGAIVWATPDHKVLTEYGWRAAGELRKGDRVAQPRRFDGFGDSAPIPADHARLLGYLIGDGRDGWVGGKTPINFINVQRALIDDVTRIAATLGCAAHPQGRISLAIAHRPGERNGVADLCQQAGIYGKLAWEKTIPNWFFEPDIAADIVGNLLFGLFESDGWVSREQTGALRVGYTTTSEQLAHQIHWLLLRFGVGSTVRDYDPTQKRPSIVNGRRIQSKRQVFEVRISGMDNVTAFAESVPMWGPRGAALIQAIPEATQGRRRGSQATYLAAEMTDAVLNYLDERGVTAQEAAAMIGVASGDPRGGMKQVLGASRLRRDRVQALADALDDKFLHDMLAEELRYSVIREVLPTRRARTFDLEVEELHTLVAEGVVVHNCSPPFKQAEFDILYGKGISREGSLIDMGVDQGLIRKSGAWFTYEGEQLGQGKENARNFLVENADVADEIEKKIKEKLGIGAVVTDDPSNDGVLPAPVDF
Arbovirus anti – arbovirus infection inhibition | arbovirus infection cell-based antiviral screen | inhibition, % at 10 µM | actives 0.37% (n = 200,000) | AID 1251;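 active = inhibition from about 30%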;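 note: bluetongue infection of BSR cells; cell survival read as ATP light after 72 h; 0% = infected wells without compound and 100% = uninfected wells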
YopH inh – inhibitors of Yersinia enterocolitica YopH tyrosine phosphatase. fluorescence Ex485/Em525. inhibition, %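 (about 10 µM by stock and volumes)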. actives 0.16% (n = 140,000). AID 898;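 active = inhibition of 50% or more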;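 note: controls were vehicle for no effect and minimum signal wells for full effect; inactives centre near -20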
Mtb growth – M. tuberculosis H37Rv growth inhibitors, H37Rv strain (AID 1626). M. tuberculosis H37Rv growth inhibition; higher % means a stronger effect. actives 0.95% (n = 220,000). inhibition, % at 10 µM; hits with a dose series show IC50 in µM;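 active = confirmed in a dose series; inconclusive = inhibition above 80% but not taken into the dose series; inactive = below 80% or under 30% at every dose of the series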;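 note: bacteria incubated seven days before Alamar blue readout; 0% = bacteria only wells and 100% = bacteria with antibiotic wells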
Mtb betalactam – beta-lactam sensitization of Mtb H37Rv. M. tuberculosis H37Rv growth with meropenem, percent inhibition; hits of this screen are not shown here. inhibition, % at 25 µM. AID 434955. actives 0.27% (n = 330,000);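 active = about 74% or more and at least 40 points above the plate without the antibiotic, then above 30% in a dose series; inconclusive = first-round hits that could not be retested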;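 note: growth measured after seven days incubation then overnight dye step; 0% = bacteria only wells and 100% = bacteria with antibiotic; twin plates without the antibiotic show which effects depend on it; some results filed as inactive read as strong as hits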
The depositor's hits bear a star; ? = inconclusive; nt = not tested or not shown. Some of the compounds tested. The share of hits here may be higher or lower than overall.

#	smiles	RecA intein inh	Arbovirus anti	YopH inh
1	CC(C)CCNC(=S)Nc1ccc(F)cc1	2.2	nt	-30
2	COc1ccc2nc(SCC(=O)NCCc3ccccc3)[nH]c2c1	1.4	nt	nt
3	NC(=O)NC(=O)CN1C(=O)NC2(CCOc3ccccc32)C1=O (centres undefined)	-1.7	nt	nt
4	CCO[C@@H]1OC(C(=O)O)=C[C@H](C2CC2)[C@H]1CCCO	0.0	1	nt
5	CCOC(=O)c1c(NC(=O)c2cc(C(C)C)on2)sc(C(C)=O)c1C	1.8	-5	-10
6	Cc1nc2ncnn2c(N2CCC(C(=O)NCC3CCCO3)CC2)c1Cc1ccccc1 (centres undefined)	nt	nt	-15
7	CCCCCCCCCCCCC(NC(C)=O)(C(=O)OCC)C(=O)OCC	-7.6	nt	nt
8	CC(C)CC(=O)Nc1ncc([N+](=O)[O-])s1	12	nt	nt
9	O=S(=O)(Cc1ccc(Cl)cc1)CC(O)COCc1ccccc1 (centres undefined)	-0.8	6	-24
10	NC(=O)C1CCCN1 (centres undefined)	-2.2	4	nt

#	Mtb growth	Mtb betalactam
1	2%	-4
2	1%	3
3	nt	-5
4	-7%	-7
5	-1%	5
6	nt	2
7	-9%	2
8	-1%	0
9	-1%	5
10	-3%	-1

The results go on:
#	smiles	RecA intein inh	Arbovirus anti	YopH inh
11	O=C1NC(c2cccs2)Nc2sc3c(c21)CCCC3 (centres undefined)	-3.6	5	-27
12	O=C(NC1CC1)C1CCN(C2CCN(C(=O)CC3=CCCCC3)CC2)CC1	0.2	0	nt
13	Cc1ccc(S(=O)(=O)Nc2cc(=O)[nH]c(SCC(=O)Nc3ccccc3C(F)(F)F)n2)cc1	5.6	nt	nt
14	CC(=O)c1cccc(NC(=O)C2CCCN(S(=O)(=O)c3cccc4nonc34)C2)c1 (centres undefined)	-2.1	nt	nt
15	COc1cccc2c3c(c(C)nc12)CCN3c1ccccc1	-10	-6	nt
16	COc1ccc(NS(=O)(=O)c2c(C)[nH]c(=O)[nH]c2=O)cc1OC	-0.9	nt	nt
17	COc1ccc(C(=O)NCC(=O)OCC(=O)N(C)c2ccccc2)cc1	1.9	nt	nt
18	COc1cc(C(=O)OC(C)CN2CCN(C)CC2)cc(OC)c1OC (centres undefined)	-0.8	-2	-47
19	COc1ccc(O)c(/C=N/NC(=O)CCC(=O)Nc2ccc(C)cc2)c1	-8.7	nt	nt
20	O=C1c2cccnc2C(O)N1Cc1ccc(F)cc1 (centres undefined)	0.3	0	-29

#	Mtb growth	Mtb betalactam
11	7%	8
12	0%	-1
13	nt	-1
14	nt	2
15	-3%	-9
16	nt	5
17	-3%	1
18	6%	0
19	nt	5
20	-2%	-1

Additional entries follow.
#	smiles	RecA intein inh	Arbovirus anti	YopH inh
21	CCN(CCNC(=O)C1CCCN(S(=O)(=O)CC)C1)c1ccccc1 (centres undefined)	-0.8	4	-53
22	Cn1cccc1-c1cc(C(=O)N/N=C/C=C/c2ccccc2)[nH]n1	8.9	14	nt
23	O=C(Cc1c(F)cccc1Cl)Nc1ccccc1-c1ccccc1	2.4	nt	nt
24	O=C(CN(Cc1ccccc1)C(=O)CSc1nnc(COc2ccccc2)o1)NC1CCCC1	0.0	10	1
25	COc1cccc2cc(-c3csc(CCn4nc(C)cc4C)n3)c(=O)oc12	2.2	-1	5
26	CCOC(=O)c1c(NC(C)=O)sc2c(OCC(O)CN(CC)CC)c(Br)ccc12 (centres undefined)	0.3	-36	nt
27	CNc1nc(Nc2ccc(Br)cc2)nc(N)c1[N+](=O)[O-]	-0.3	-11	-29
28	CN(CCO)c1ccc(C(C(=O)c2ccccc2)c2ccc(N(C)CCO)cc2)cc1	1.1	nt	nt
29	COc1cc(OC)cc(-c2nnc(NC(=O)c3ccc4c(c3)OCCO4)o2)c1	0.1	nt	nt
30	CCCCN(C(=O)CCC(=O)O)C1CC(=O)N(c2ccc(OCCC)cc2)C1=O (centres undefined)	2.2	7	-25

#	Mtb growth	Mtb betalactam
21	-9%	-5
22	-6%	31
23	nt	12
24	-3%	7
25	8%	-11
26	9%	64
27	1%	2
28	nt	-3
29	nt	54
30	-2%	4

Another view of some results above.
cpd | SMILES | RecA intein inh | Arbovirus anti | YopH inh | Mtb growth | Mtb betalactam
24 | O=C(CN(Cc1ccccc1)C(=O)CSc1nnc(COc2ccccc2)o1)NC1CCCC1 | 0.0 | 10 | 1 | -3% | 7
23 | O=C(Cc1c(F)cccc1Cl)Nc1ccccc1-c1ccccc1 | 2.4 | nt | nt | nt | 12
28 | CN(CCO)c1ccc(C(C(=O)c2ccccc2)c2ccc(N(C)CCO)cc2)cc1 | 1.1 | nt | nt | nt | -3
26 | CCOC(=O)c1c(NC(C)=O)sc2c(OCC(O)CN(CC)CC)c(Br)ccc12 (centres undefined) | 0.3 | -36 | nt | 9% | 64

Following part.
#	smiles	RecA intein inh	Arbovirus anti	YopH inh
31	O=[N+]([O-])c1ccccc1N/N=C/c1cccc(O)c1O	-6.8	nt	nt
32	Fc1ccccc1CSc1nnc(-c2ccccc2)o1	5.2	-8	8
33	C(=N\Nc1ccc2ccccc2n1)/c1ccc2c(c1)OCO2	-1.3	24	nt
34	COC(=O)c1ccc(-n2c(C)cc(C(=O)CSc3cccc[n+]3[O-])c2C)cc1	-3.8	11	nt
35	Cc1cc(NC(=O)CSc2nnc(-c3ccoc3C)n2N)no1	-0.3	11	-22
36	O=C(Nc1cc(-c2nc3ccccc3s2)ccc1Cl)c1ccc2c(c1)OCO2	-0.7	-11	-25
37	CC(C)NC(=O)c1onc(CSc2ccc(Cl)cc2)c1C(=O)O	-3.1	14	-9
38	Cc1ccccc1-n1sc2cc(F)ccc2c1=O	nt	-25	nt
39	Fc1ccccc1N1CCN(c2nc(-c3cccs3)nc3ccccc23)CC1	5.9	8	nt
40	CC1(OC(=O)C2CCCC2)C(=O)C=C2C=C(c3ccsc3)N(CC3CC3)C=C2C1=O (centres undefined)	8.4	nt	nt

#	Mtb growth	Mtb betalactam
31	3%	6
32	10%	3
33	13%	86
34	5%	5
35	-3%	-3
36	-4%	14
37	-9%	99
38	?	100
39	48%	81
40	0%	-5

Following part:
#	smiles	RecA intein inh	Arbovirus anti	YopH inh
41	CCOC(=O)C(CC)Sc1nc(N)c(NC(=O)c2ccc(OC)c(OC)c2)c(=O)[nH]1 (centres undefined)	-1.6	-4	-36
42	Cc1cc(C)cc(NC(=O)COc2ccc3c(C)c(Cc4ccccc4)c(=O)oc3c2)c1	2.2	-8	-31
43	CCOCC(=O)Nc1cc(C(=O)NCCc2ccccc2)ccc1Cl	4.0	-12	nt
44	COc1c(F)c(F)c(C(=O)Nc2ccccc2N2CCN(C(=O)C(C)C)CC2)c(F)c1F	0.3	-3	-31
45	CC(CC(=O)Nc1nnc(CC(C)(C)C)s1)c1ccccc1 (centres undefined)	-1.3	nt	nt
46	C#CCNC(=O)C1=C[C@@H](c2ccc3c(c2)OCO3)C[C@@H](OCc2ccc(CO)cc2)O1	-1.5	nt	nt
47	CCCOc1cccc(C(=O)N(Cc2ccc(OC)c(OC)c2)C2CCS(=O)(=O)C2)c1 (centres undefined)	0.0	0	21
48	O=c1c2c(nc3nc[nH]n13)CCC2	-0.9	-6	-38
49	O=C(C1=C(O)C(=O)N(Cc2ccccc2)C1c1cccnc1)c1ccco1 (centres undefined)	2.7	nt	-120
50	c1ccc2[nH]c(CSc3nc4ccccc4s3)nc2c1	-0.2	14	-14

#	Mtb growth	Mtb betalactam
41	0%	-1
42	3%	8
43	-1%	3
44	-1%	-13
45	nt	4
46	-3%	4
47	2%	-4
48	-8%	-6
49	-4%	-2
50	-1%	-5

The list goes on:
#	smiles	RecA intein inh	Arbovirus anti	YopH inh
51	COc1ccc(/C=N/S(=O)(=O)c2ccc(C)cc2)cc1	-0.3	10	nt
52	O=S(=O)(Nc1ncccn1)c1ccc(NC(=S)Nc2cccc(Cl)c2)cc1	4.7	nt	nt
53	CCSC1=NCCN1S(=O)(=O)c1ccc2ccccc2c1	4.3	10	nt
54	O=C(Cc1ccc(Cl)cc1)N1CCN(c2ccccc2)CC1	-0.7	nt	nt
55	Cc1cccc(NC(=O)CCC2CCN(C(=O)c3ccc(C)s3)CC2)c1	2.2	nt	nt
56	O=c1[nH]cnc2cc(-c3ccccc3)sc12	10	-5	-12
57	O=C(CSc1nnnn1-c1ccccc1)NC1CCCc2ccccc21 (centres undefined)	-1.1	1	-28
58	COc1ccc(N2CC(C(=O)NCCN3C(=O)S/C(=C\c4cccnc4)C3=O)CC2=O)c(OC)c1 (centres undefined)	3.8	nt	nt
59	Cc1ccc(S(=O)(=O)Nc2nc(N)n(-c3ccccc3)n2)cc1	-4.0	6	nt
60	CC(=O)NC12CC3CC(C1)CC(C(=O)Nc1nc4c(C)cccc4s1)(C3)C2	2.4	nt	nt

#	Mtb growth	Mtb betalactam
51	-9%	-12
52	11%	3
53	8%	0
54	nt	-4
55	nt	31
56	8%	55
57	2%	-10
58	nt	-8
59	-8%	-6
60	nt	68

(further entries)
#	smiles	RecA intein inh	Arbovirus anti	YopH inh
61	Cc1ccc(N=C2S/C(=C\c3cn(CC(=O)O)c4ccccc34)C(=O)N2C)cc1	5.7	19	-12
62	COc1ccccc1-n1cnnc1SCC(=O)N1CCN(C(=O)c2ccco2)CC1	-0.4	15	nt
63	COc1cccc(C(=O)Nc2ncc3c(n2)CC(C)CC3=O)c1 (centres undefined)	3.4	-2	29
64	CCC1(CC)C(=O)NC(=O)NC1=NCCc1c[nH]c2ccccc12	-2.8	-5	-31
65	Cn1nc(C(=O)NCc2ccc(F)cc2)c2c1-c1ccccc1S(=O)(=O)C2	-0.5	nt	nt
66	CN1C(=O)/C(=C/c2ccc(C(=O)Nc3ccc(O)cc3C(=O)O)cc2)SC1=S	20	nt	nt
67	Cc1nonc1C(=O)N/N=C/c1ccc(O)cc1O	-2.7	-20	nt
68	Cc1cc(-c2csc(Nc3ccccn3)n2)ccc1F	-3.4	nt	nt
69	CC1CCCN(C(=O)c2ccncc2)C1 (centres undefined)	-1.6	1	-28
70	CCN(CC(=O)N1CCN(Cc2ccccc2)CC1)S(=O)(=O)c1ccc(F)cc1	0.8	nt	nt

#	Mtb growth	Mtb betalactam
61	10%	-4
62	-6%	0
63	-13%	-6
64	7%	-8
65	nt	-1
66	nt	8
67	-5%	0
68	nt	22
69	-8%	-5
70	nt	-8

Further structures:
#	smiles	RecA intein inh	Arbovirus anti	YopH inh
71	Cc1cc(NC(=O)CSc2nnc(C3COc4ccccc4O3)o2)no1 (centres undefined)	-1.4	-1	-4
72	Nc1nc(Nc2ccc(Cl)cc2)nc2ccccc12	8.2	-33	-20
73	COC(=O)c1ccc(CN2CCCC(CO)(Cc3ccccc3F)C2)cc1 (centres undefined)	-0.5	nt	nt
74	CCC(=O)NC(C)C(c1cccs1)N1CCN(c2ccccc2)CC1 (centres undefined)	0.9	5	-30
75	COc1ccc(/C(O)=C2/C(=O)C(=O)N(CCCC(=O)O)C2c2ccc(OC)cc2)cc1 (centres undefined)	3.7	5	-30
76	COC(=O)c1c(NC(=O)CSc2nnc(-c3ccco3)n2C)sc(C)c1C	1.1	-9	-15
77	COc1ccc(-c2nn(-c3ccccc3C)cc2CNC(C)Cn2cncn2)cc1F (centres undefined)	-2.2	-5	nt
78	CC1N(O)C(c2ccc(Cl)cc2Cl)N(O)C1(C)C (centres undefined)	-4.2	5	-43
79	CN=CC1=C(O)c2ccccc2C1=O	-2.4	13	-39
80	CC(C)=C1C2CCC1C1C(=O)N(c3nc(-c4ccccc4)c(C)s3)C(=O)C21 (centres undefined)	5.8	16	-32
81	C=CCOc1cccc(CNc2cccc(C(=O)O)c2)c1	-2.8	nt	nt

#	Mtb growth	Mtb betalactam
71	0%	-11
72	5%	-3
73	nt	-1
74	-4%	2
75	nt	19
76	-8%	0
77	-7%	13
78	-1%	2
79	-9%	2
80	1%	-8
81	-1%	0

Compound activity: PubChem, several laboratories
